CSC inhib – blocks cancer stem cells. inhibition, % at 7.5 µM. hit rate 1.1% among 300,000. AID 2717. cancer stem cell-like cells viability, luminescence;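 active = mean at 75% or more and at least half the replicates too; tested in HMLE shEcad cells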;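 also: 0% = median of negative and 100% = median of positive control wells; the first replicate is given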
eIF4H inh – inhibitors of RNA binding by human eIF4H | Q15056 | eIF4H fluorescence polarization binding assay | inhibition, % at 35 µM | hit rate 0.94% among 290,000;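 active = 50% or more with normal probe brightness, or confirmed in later tests; about a fifth of its hits are not listed in these tables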;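 also: calls also rest on retests at 20 µM and on dose response follow-up; 0% = protein and probe with vehicle and 100% = probe without protein; strong numbers were not always called active; many hits fall short of the cut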
PABP FP inh – blocks human PABP binding to poly(A) RNA; P11940; fluorescence polarization; inhibition, % at 35 µM; hit rate 1% among 290,000;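 active = 50% or more with normal probe brightness, or confirmed in later tests; about a fifth of its hits are not listed in these tables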;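 also: calls also rest on retests at 20 µM and on dose response follow-up; controls were probe without protein and protein plus probe with vehicle; some compounds called inactive have numbers as strong as hits; many hits fall short of the cut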
Target sequence (P11940 whole entry, looked up): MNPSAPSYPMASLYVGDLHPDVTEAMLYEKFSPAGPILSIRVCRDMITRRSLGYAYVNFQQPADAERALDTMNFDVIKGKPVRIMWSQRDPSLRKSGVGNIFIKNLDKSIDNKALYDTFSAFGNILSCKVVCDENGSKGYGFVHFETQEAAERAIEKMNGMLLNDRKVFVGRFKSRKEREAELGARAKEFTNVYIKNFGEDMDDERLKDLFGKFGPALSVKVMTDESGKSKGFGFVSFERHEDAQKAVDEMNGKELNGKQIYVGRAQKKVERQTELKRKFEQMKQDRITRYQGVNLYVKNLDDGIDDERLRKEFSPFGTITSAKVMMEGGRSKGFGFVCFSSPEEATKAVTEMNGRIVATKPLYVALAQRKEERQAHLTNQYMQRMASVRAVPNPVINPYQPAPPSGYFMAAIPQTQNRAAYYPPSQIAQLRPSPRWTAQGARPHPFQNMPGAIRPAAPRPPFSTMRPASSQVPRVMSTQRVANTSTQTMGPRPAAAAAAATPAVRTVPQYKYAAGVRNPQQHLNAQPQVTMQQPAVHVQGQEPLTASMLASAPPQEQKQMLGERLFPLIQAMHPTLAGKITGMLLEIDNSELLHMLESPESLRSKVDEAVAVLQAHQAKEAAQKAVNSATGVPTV
Rce1 inhib – yeast Ras-converting enzyme inhibition. Q03530. yeast membranes, quenched prenylated peptide cleavage fluorescence. calls only. hit rate 0.27% among 290,000. AID 2563;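 active = fall in fluorescence gain of 50% or more versus controls, with final raw signal at or below 3038400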;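 also: plate controls were neutral control wells for no effect and wells lacking membranes for full effect; tested at 10 µM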
MT1-MMP act inh – MT1-MMP (human) activation inhibition. GFP/RFP ratio change, % at 20 µM. P50281. HT1080 RFP-PRO-GFP cells, GFP/RFP ratio fluorescence, overnight; percent of plate control window, DMSO zero. AID 651647. hit rate 0.061% among 360,000;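 active = GFP/RFP ratio change of at least 30% with cell ATP level not reduced by more than half and red fluorescence within 50% of control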; also: strong numbers were not always called active
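Assay system – RFP-PRO-GFP reporter HT1080 cells · Compound dosing – single dose of 20 µM compound, 1% DMSO final · Incubation – overnight compound exposure at 37 °C · Measure – GFP/RFP fluorescence ratio · Benchmarks – DMSO wells and RFP-L50D-GFP cells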
Yeast UUG start – alters start codon recognition fidelity in yeast. S. cerevisiae UUG-firefly luciferase reporter, luminescence/redox ratio. hit rate 0.13% among 350,000. activity score, % at 18.7 µM;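 active = replicate mean at a twofold rise or more, about +100% in these data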;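 also: firefly luciferase made from a UUG start codon reports start codon fidelity; reporter light over untreated wells divided by growth signal over untreated wells; some hits fall short of that in this replicate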
Env fusion inh – blocks HIV Env-driven cell-cell fusion. hit rate 1.1% among 360,000. inhibition, % at 12.3 µM. HeLa-JRFL Env/CEM21 cell fusion, luciferase. AID 651610;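 active = mean replicate inhibition score of at least 50 and every replicate individually at or above 50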;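 also: 0% = plate neutral controls and 100% = maraviroc near 300 nM; one replicate is shown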
eIF4H inh retest – further read-out of eIF4H inh, marked with its call; inhibition, %; compound at 20 µM; confirmation average;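 mean of two retest wells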
PABP FP inh retest – further read-out of PABP FP inh, marked with its call; inhibition, %; compound at 20 µM; confirmation repeats;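 mean of two retest wells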
MT1-MMP act inh RFP – further read-out of MT1-MMP act inh, marked with its call; RFP signal change, %; measured here: RFP expression control read;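 0 = vehicle wells; hits needed this value within 50% of zero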
The depositor's hits bear a star; i = inactive; · = no result given. The list is partial. The share of hits here may be higher or lower than overall.

SMILES | CSC inhib | eIF4H inh | PABP FP inh | Rce1 inhib | MT1-MMP act inh | MT1-MMP act inh RFP | Yeast UUG start | Env fusion inh | others
CC1(C)Cc2c(cnn2-c2ccc(F)cc2)C(NC(=O)CN2CCCCC2=O)C1 (stereo not given) | -1 | -2 | -12 | i | 0 | 2 | -12 | ·
O=C(NCC1COc2ccccc2O1)c1ccc(-n2cncn2)c([N+](=O)[O-])c1 (stereo not given) | -14 | · | · | i | 3 | 1 | · | 21
CCN(c1ccccc1)S(=O)(=O)c1ccc(Oc2ccccc2)c(N)c1 | · | · | · | · | -1 | -6 | -3 | 8
Cc1ccc(N2C(=O)c3ccccc3C2=O)cc1C | -7 | 9 | -2 | i | -4 | 1 | -6 | ·
O=C(Cc1cccc2ccccc12)NCC(=O)N1CCN(CC(=O)Nc2ccc(F)cc2)CC1 | · | · | · | · | -1 | -4 | -15 | 65*
CCN(CC)S(=O)(=O)c1ccc(C2CNC(=O)C2)cc1 (stereo not given) | -1 | -7 | -5 | i | 0 | 0 | -10 | -10
Cc1cccn2c(=O)c3cc(C(=O)O)n(C)c3nc12 | 0 | -1 | 8 | i | -6 | 0 | · | ·
COc1ccc(CNC(=O)N[C@H](C(=O)O)C(C)C)cc1OC | -11 | 4 | 15 | i | 1 | 1 | 14 | -9
O=C(COC(=O)c1ccc([N+](=O)[O-])s1)Nc1ncc(C(F)(F)F)cc1Cl | -18 | 14 | 4 | i | -6 | 2 | -6 | -12
Cc1ccc(C)n1-c1ccc(C(=O)Nc2ccccc2)cc1 | 16 | -7 | -10 | i | -3 | 4 | · | -10
COc1ccc(CSc2nnc(C)n2N)cc1 | -8 | -8 | -5 | i | -3 | -3 | -10 | ·
CCOc1ccc(/C=N/NC(=O)CSc2ccccn2)cc1O | -14 | -8 | -3 | i | 5 | 3 | · | 1
CC(NC(=O)CCCc1c[nH]c2ccccc12)c1ccc(F)cc1 (stereo not given) | 11 | 8 | 4 | i | 1 | 4 | -5 | -240
Fc1ccc(N/N=C/c2ccc(N3CCOCC3)cc2)c(F)c1 | 26 | -1 | -8 | · | 1 | 4 | · | -19
Cn1c(NN)nc2c1c(=O)n(Cc1ccccc1)c(=O)n2C | -4 | 49 | -1 | i | -1 | 0 | -15 | -29
Cc1ccccc1CNc1ncnc2cc(Cl)ccc12 | 21 | -3 | 2 | i | -3 | -8 | -33 | 7
CCS(=O)(=O)N1CCC(C(=O)Nc2cccc(C(C)=O)c2)CC1 | · | 4 | -10 | i | 1 | -2 | 0 | -39
COC(=O)C1C(C(C)C)N(c2ccccc2)OC1(C)O (stereo not given) | -5 | -1 | -6 | i | 3 | 4 | -13 | ·
C/[N+]([O-])=C\C1C(=O)CCCC1=O | -6 | -2 | -3 | i | -2 | 1 | · | -3
CC1=C(C)CC(C(=O)NNC(=O)c2ccccc2O)C(C(=O)O)C1 (stereo not given) | -6 | 8 | 5 | i | -12 | -8 | -3 | ·

In the list so far, these have a COOH group:
SMILES | CSC inhib | eIF4H inh | PABP FP inh | Rce1 inhib | MT1-MMP act inh | MT1-MMP act inh RFP | Yeast UUG start | Env fusion inh | others
Cc1cccn2c(=O)c3cc(C(=O)O)n(C)c3nc12 | 0 | -1 | 8 | i | -6 | 0 | · | ·
COc1ccc(CNC(=O)N[C@H](C(=O)O)C(C)C)cc1OC | -11 | 4 | 15 | i | 1 | 1 | 14 | -9
CC1=C(C)CC(C(=O)NNC(=O)c2ccccc2O)C(C(=O)O)C1 (stereo not given) | -6 | 8 | 5 | i | -12 | -8 | -3 | ·

The main list resumes, repeating the two entries before the break.
SMILES | CSC inhib | eIF4H inh | PABP FP inh | Rce1 inhib | MT1-MMP act inh | MT1-MMP act inh RFP | Yeast UUG start | Env fusion inh | others
C/[N+]([O-])=C\C1C(=O)CCCC1=O | -6 | -2 | -3 | i | -2 | 1 | · | -3
CC1=C(C)CC(C(=O)NNC(=O)c2ccccc2O)C(C(=O)O)C1 (stereo not given) | -6 | 8 | 5 | i | -12 | -8 | -3 | ·
COc1cc2c(cc1OC)CN(C(=O)CCN1C(=O)C3CCCCC3C1=O)CC2 (stereo not given) | 4 | 6.2* | 75* | i | 0 | 0 | · | 8 | eIF4H inh retest=109*;PABP FP inh retest=90*
COc1ccc(C[C@H]2CN3C(=NC[C@@H]3Cc3ccccc3)N2CCNC(=O)c2ccc(C)c(Br)c2)cc1 | 13 | -11 | -16 | i | 0 | -2 | -2 | ·
O=C1C(C23CC4CC(CC(C4)C2)C3)C(=O)N(c2ccccc2)N1c1ccccc1 | -4 | -6 | -3 | i | -3 | 2 | -29 | ·
O=C(NCc1ccco1)c1ccc(COc2ccccc2[N+](=O)[O-])o1 | -12 | -8 | 2 | i | -4 | -4 | -14 | 2
Cc1ccc(NC(=O)/C(CN(C)C)=N\O)cc1 | -11 | -4 | -2 | i | 1 | 2 | · | 12
CC(=O)Nc1ccc(-c2csc(NC(=O)Nc3ccccc3)n2)cc1 | · | -7 | 2 | i | -5 | -9 | -4 | -23
Cc1cccc(NC2(C(F)(F)F)N=C3SCCN3C2=O)n1 (stereo not given) | -9 | -5 | 1 | i | -1 | 1 | -4 | 9
CCCN(CC(=O)Nc1ccccc1C)C(=O)c1cc(=O)[nH]c2ccccc12 | -8 | 11 | 7 | i | 5 | 5 | · | -17
CC(C)Oc1ccc(F)cc1-c1cc(C(=O)NC2CCCCC2)[nH]n1 | · | · | · | · | 0 | -10 | 10 | 22
CCCNC(=O)C1CC(c2ccccc2[N+](=O)[O-])=NO1 (stereo not given) | -1 | · | · | i | -3 | -1 | -20 | -9
O=C(COc1ccc2ccccc2c1)NNC(=O)Cc1ccccc1 | 4 | 8 | 5 | i | 4 | 2 | 2 | -4
CC1(C)Cc2c(sc(/N=C/N3CCCC3)c2C#N)C(C)(C)N1 | -4 | 7 | -7 | i | -6 | -2 | · | -27
Cc1ccc(-n2nc(C)c(/C=N/n3c(C)n[nH]c3=S)c2Cl)cc1 | 15 | 0 | 0 | i | -2 | 0 | · | 13
CC(C)(C)NC(=O)c1ccc2c(c1)N(CC(=O)N1CCCC1)C(=O)C(C)(C)O2 | -12 | -2 | 0 | i | -4 | -8 | 5 | 1
CCC(C)NS(=O)(=O)c1ccc(OCC(=O)NCc2ccccn2)cc1 (stereo not given) | -3 | -17 | -8 | i | 2 | 5 | · | 17
COc1ccc(NC(=O)C2CCCN(c3nc(C)cc(C)n3)C2)cc1 (stereo not given) | 2 | -4 | 9 | i | 2 | 2 | · | -9
CN(C1CCS(=O)(=O)C1)S(=O)(=O)c1ccccc1[N+](=O)[O-] (stereo not given) | · | -6 | -4 | i | 4 | 8 | -16 | -7
CCCCCCn1c(N2CCN(c3ccccc3)CC2)nc2c1c(=O)[nH]c(=O)n2C | -9 | -12 | 7 | i | -2 | -11 | -4 | ·
Cc1cccc(N2CCN(C(=O)C3CCN(c4ncnc5c4nc4n5CCCCC4)CC3)CC2)c1C | 38 | 1 | 3 | i | -1 | -30 | 5 | 13
COc1ccc(CNS(=O)(=O)c2cc(-c3cc(C)no3)ccc2C(C)C)cc1 | -3 | -18 | 9 | i | -6 | -15 | -17 | -191

Overlap with the part before: four entries, followed by the next part.
SMILES | CSC inhib | eIF4H inh | PABP FP inh | Rce1 inhib | MT1-MMP act inh | MT1-MMP act inh RFP | Yeast UUG start | Env fusion inh | others
CN(C1CCS(=O)(=O)C1)S(=O)(=O)c1ccccc1[N+](=O)[O-] (stereo not given) | · | -6 | -4 | i | 4 | 8 | -16 | -7
CCCCCCn1c(N2CCN(c3ccccc3)CC2)nc2c1c(=O)[nH]c(=O)n2C | -9 | -12 | 7 | i | -2 | -11 | -4 | ·
Cc1cccc(N2CCN(C(=O)C3CCN(c4ncnc5c4nc4n5CCCCC4)CC3)CC2)c1C | 38 | 1 | 3 | i | -1 | -30 | 5 | 13
COc1ccc(CNS(=O)(=O)c2cc(-c3cc(C)no3)ccc2C(C)C)cc1 | -3 | -18 | 9 | i | -6 | -15 | -17 | -191
O=C(CSC(=S)N1CCCC1)c1cc(Br)cc(Br)c1O | -19 | 6 | 13 | i | · | · | · | -11
Cc1ccc(S(=O)(=O)CCC(=O)OCC(=O)Nc2ncc(Cl)cc2Cl)cc1 | 3 | 18 | 19 | i | -2 | 7 | -11 | 18
CCCC(C(=O)NC(C)(C)C)N(Cc1ccc(F)cc1)C(=O)c1snc(C(N)=O)c1N (stereo not given) | -3 | -2 | -5 | i | 2 | -2 | -5 | 8
O=C(NC(=S)NC1CCCC1)c1ccccc1 | 0 | 6 | -4 | i | 0 | 5 | -21 | -37
COc1ccc(N2CCN(Cc3ccc(Br)s3)CC2)cc1 | -8 | -2 | 45 | i | 2 | 2 | -7 | ·
Cc1cc(C)c(C)c(S(=O)(=O)N2C(=S)NC(=O)C2C(C)C)c1C (stereo not given) | -12 | 0 | 4 | · | 0 | -3 | 0 | ·
COc1ccc(C(=O)COC(=O)c2ccc(N(C)C)cc2)cc1 | 16 | -2 | -7 | i | 5 | -2 | · | -5
CCOC(=O)CC(=O)N/N=C/c1c(N)n(C)c(=O)n(C)c1=O | -3 | -1 | -8 | i | 1 | 4 | -6 | 8
O=C(CNS(=O)(=O)c1ccccc1)NCc1ccco1 | -10 | 8 | 3 | i | 0 | 0 | 12 | -1
O=c1[nH]c2cccnc2c2ccsc12 | -7 | -2 | 2 | i | -2 | -1 | -15 | -27
COC(=O)c1[nH]c2ccc(C)cc2c1NC(=O)CCN1CCN(C2CCCCC2)CC1 | · | 2 | -5 | i | · | · | · | ·
O=c1[nH]c2ccc(S(=O)(=O)N3CCN(Cc4ccccc4)CC3)cc2[nH]c1=O | · | 6 | -10 | i | 2 | 2 | · | ·
COC(=O)N/N=C/c1cccc(OCCSc2ccc(Cl)cc2)c1 | 35 | 3 | 3 | i | -8 | -8 | 0 | -2
Cc1cccc(N2C(=O)CC(N3CCN(Cc4ccc5c(c4)OCO5)CC3)C2=O)c1 (stereo not given) | -2 | -6 | 1 | i | 9 | 4 | 2 | ·
COC(CNC(=O)c1cc(C(=O)c2c(-c3c(Cl)cccc3Cl)noc2C)c[nH]1)OC | 15 | 2 | -4 | i | -3 | -3 | 3 | ·
CC(C)(Oc1ccc(Cl)cc1)C(=O)NC1CCSC1=O (stereo not given) | · | -2 | 14 | i | 7 | 6 | -6 | ·
CCOC(=O)COc1nc(-c2ccc(C)cc2)cc(-c2ccco2)c1C#N | -2 | -1 | -9 | i | 3 | 0 | · | 0
CC(=O)Nc1ccc(CN2CCC(n3nccc3NC(=O)CCc3ccccc3)CC2)cc1 | -10 | -3 | 7 | i | -3 | 2 | -13 | -9
O=C(COc1nsnc1N1CCOCC1)Nc1ccc(Br)cc1 | · | -4 | 8 | i | 1 | -5 | -10 | 26
CCOC(=O)C1=C(COC(=O)c2cccnc2SC)NC(=O)NC1C (stereo not given) | -3 | · | · | · | 4 | 5 | -10 | 2
CCn1nc(NC(=O)C(C)(C)C)c2cc3cccc(C)c3nc21 | -10 | -1 | 7 | i | 2 | -2 | -5 | -3
CC(=O)c1c(C)[nH]c(C(=O)OCc2ccccc2)c1C | 3 | 8 | -8 | i | 5 | -13 | 1 | 3

Assay outcomes (PubChem)
